HSV augment = increases HSV replication in cells | HSV replication augmentation in cells, fold increase | maximum fold increase | 220,000 tested, 0.005% active | AID 1956;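 active means peak rise of 1.5-fold or more in the series; inconclusive means self-fluorescent or not available for retest; tested in PC3 cells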;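 further: first round at 10 µM; read as green reporter fluorescence; hits show the peak of a series up to 25 µM; 1 = signal of infected wells without compound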
GALR2 agonist = GALR2 (human) receptor agonism; 140,000 tested, 0.48% active; GALR2-expressing cells, agonist activation read-out; O43603; AID 803; activation, %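 (tested at 5 µM)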;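 active means above mean plus 3 SD of all compounds, about 5% in these data, not always enough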;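 further: 0% = vehicle buffer wells and 100% = reference agonist at full effect; tested in CHO reporter cells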
Target sequence (O43603 whole entry, looked up): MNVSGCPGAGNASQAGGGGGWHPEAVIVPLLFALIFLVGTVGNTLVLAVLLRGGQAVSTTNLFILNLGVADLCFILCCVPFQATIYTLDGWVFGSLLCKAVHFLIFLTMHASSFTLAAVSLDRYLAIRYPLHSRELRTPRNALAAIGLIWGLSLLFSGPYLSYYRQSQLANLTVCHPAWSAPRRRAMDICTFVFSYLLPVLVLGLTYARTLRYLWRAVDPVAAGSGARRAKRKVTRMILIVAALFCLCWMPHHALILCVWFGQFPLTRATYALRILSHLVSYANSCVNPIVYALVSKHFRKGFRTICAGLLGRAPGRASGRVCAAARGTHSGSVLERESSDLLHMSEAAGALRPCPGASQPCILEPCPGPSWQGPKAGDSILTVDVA
Insulin prom inh = TRM-6 insulin promoter activity inhibition; AID 1273; 130,000 tested, 0.9% active; TRM-6 cells (human fetal islet line), insulin promoter-eGFP reporter, imaging; reporter expression induced with tamoxifen; inhibition, % at 2 µM;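 active means inhibition above the mean plus 3 SD, with well images judged a real hit on visual review, cut at about 60% in these data, passing the limit was not always enough; inconclusive means inhibition over the cutoff but images rejected on review; inactive means inhibition not above the cutoff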
PKD1 inh = inhibitors of human PKD1 kinase | PKD1 kinase fluorescence polarization assay | Q15139 | inhibition, %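 (about 10 µM by stock and volumes)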 | 200,000 tested, 0.056% active | AID 797;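 active means inhibition of 50% or more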;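 further: controls were vehicle for no effect and a reference inhibitor for full effect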
RGS16-Gao = regulators of human RGS16-Galphao interaction | binding response (% of control), % at 10 µM | O15492+P09471 | 220,000 tested, 0.38% active | bead-based flow cytometry RGS16-Galphao binding, fluorescence; actives lie on both sides;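 active means below 25% or above 175%, edge rows of some plates excepted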;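 further: Galphao activated by GDP with aluminum fluoride before binding; 100% = wells without compound and 0% = beads without RGS; some results beyond the cut were filed as inactive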
Target sequence (O15492 whole entry, looked up): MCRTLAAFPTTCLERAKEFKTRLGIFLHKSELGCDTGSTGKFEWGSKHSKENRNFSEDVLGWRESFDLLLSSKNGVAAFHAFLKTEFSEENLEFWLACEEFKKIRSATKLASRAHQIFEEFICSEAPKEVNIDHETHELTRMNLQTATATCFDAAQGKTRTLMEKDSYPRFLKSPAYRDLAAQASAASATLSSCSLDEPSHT
Target sequence (P09471 whole entry, looked up): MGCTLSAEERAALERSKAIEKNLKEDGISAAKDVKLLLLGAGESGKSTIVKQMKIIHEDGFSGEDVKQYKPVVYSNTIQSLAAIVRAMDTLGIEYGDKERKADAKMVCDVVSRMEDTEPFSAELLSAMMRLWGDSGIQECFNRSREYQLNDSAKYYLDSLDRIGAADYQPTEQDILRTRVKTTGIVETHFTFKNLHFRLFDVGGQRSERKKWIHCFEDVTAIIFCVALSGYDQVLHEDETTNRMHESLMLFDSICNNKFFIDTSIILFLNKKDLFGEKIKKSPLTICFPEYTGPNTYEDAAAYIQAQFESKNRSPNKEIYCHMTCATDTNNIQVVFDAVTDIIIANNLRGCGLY
Insulin prom inh cell count = recorded beside Insulin prom inh, whose call it bears; normalized cell count, %; measured here: cell count, toxicity; reference of the scale not given here;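 cells exposed to compound for 48 h; stained nuclei by imaging scaled within each plate; lower means fewer cells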
HSV augment primary fold = recorded beside HSV augment, whose call it bears; fold increase; compound at 10 µM; measured here: primary screen fold increase 10 uM; tested in PC3 cells;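 GFP signal in the first replicate; 1 = infected wells without compound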
Numbers without * were called inactive; i = inactive; ? = inconclusive; / = no result given. Compounds were not picked by outcome. About 1.3% of those tested had a hit in this group.

mol | HSV augment | HSV augment primary fold | GALR2 agonist | Insulin prom inh | Insulin prom inh cell count | PKD1 inh | RGS16-Gao
Clc1cccc2sc(N3CCN(c4ccccc4)CC3)nc12 | i | 1.2 | 0.8 | / | / | 6 | 101
NC(=O)c1ccc(N2CCCCC2)c(N2C(=O)C3CC=CCC3C2=O)c1 (configuration not stated) | i | 1.1 | -2.4 | -11 | 115 | -7 | 102
O=C(NCC1OCCc2ccccc21)c1ccc(NC(=O)c2cccc(Br)c2)cc1 (configuration not stated) | i | 0.83 | -2.1 | 44 | 111 | 4 | 105
NC(=O)C1CCN(C(=O)CN(c2cccc(C(F)(F)F)c2)S(=O)(=O)c2ccccc2)CC1 | i | 0.86 | -0.6 | -77 | 95 | -5 | 103
CN1C(=O)c2ccc(NC(=O)c3ccc(N4CCCCC4)c([N+](=O)[O-])c3)cc2C1=O | i | 1.1 | -1.3 | / | / | -2 | 30
CCOc1ccccc1OCC(=O)NCCc1ccc(S(N)(=O)=O)cc1 | i | 0.96 | / | 43 | 126 | 0 | 112
CN(C)c1ccc(/C=C/C(=O)c2cccc(Br)c2)cc1 | / | / | -1.5 | / | / | -5 | 98
CCn1cc(C(=O)O)c(=O)c2cnc(N3CCN(C(=S)NC(=O)c4ccccc4)CC3)nc21 | i | 0.95 | / | / | / | / | 90
CCOC(=O)C1=C(C)NC(C)=C(C(=O)OCC)C1c1ccccn1 | i | 1 | -2.6 | 31 | 71 | -12 | 154
Cc1ccc(-c2cc(C(=O)NCCc3ccc(S(N)(=O)=O)cc3)c3ccccc3n2)cc1 | i | 0.99 | / | 0 | 78 | -3 | 102
N/C(=N\OC(=O)COc1ccc(Cl)cc1Br)c1ccncc1 | i | 0.96 | / | / | / | -3 | 103
O=C(NC12CC3CC(CC(C3)C1)C2)c1ccc(S(=O)(=O)N2CCOCC2)cc1 | i | 0.92 | -0.5 | / | / | 6 | 103
COc1ccc(CCN(/C=C2\Sc3ccccc3C2=O)C(C)=O)cc1OC | i | 0.93 | / | / | / | / | 100
CCOC(=O)COn1c(=O)c(=O)n(O)c2ccccc21 | i | 0.91 | -0.8 | -9 | 136 | -4 | 96
C=CCSc1nc(C)c(CCC(C)C)c(=O)[nH]1 | i | 0.99 | / | / | / | 1 | 98
O=C1c2ccccc2-c2onc3ccc(Oc4ccccc4)c1c23 | / | / | -1.3 | -400 | 51 | -5 | 78
CC(C)CCn1c(=O)[nH]c2ccccc21 | i | 0.64 | / | / | / | / | 101
O=C(COc1ccc2ccccc2c1)Nc1ccc2c3c(cccc13)CC2 | i | 1.1 | -1.3 | 15 | 109 | -8 | 100
COc1ccccc1NS(=O)(=O)c1cccc(C(=O)OCc2nc3ccccc3s2)c1 | i | 0.92 | -1.5 | 8 | 170 | -6 | 107
Cc1[nH]c2ccccc2c1C(=O)CN1CCSCC1 | i | 0.95 | -2.4 | / | / | 1 | 101
CC(C)(C)C(=O)N1CCN(c2ncccc2C(F)(F)F)CC1 | i | 0.91 | / | / | / | / | 100
Cc1cc(C(=O)CSc2nc(N)cc(=O)[nH]2)c(C)n1Cc1ccco1 | i | 0.96 | / | / | / | / | 94
O=C(COc1ccccc1F)NC12CC3CC(CC(C3)C1)C2 | i | 0.91 | / | / | / | / | 104
Nc1cc(N)nc(SCC(=O)NNC(=O)Cc2ccccc2)n1 | i | 0.93 | / | / | / | -3 | 104
COc1ccccc1NC(=O)CCn1cccc1 | i | 0.91 | -2.6 | -10 | 141 | -3 | 106
COc1ccc(-c2cc3nc(C)cc(N)n3n2)cc1 | i | 0.97 | -1.4 | 22 | 83 | -4 | 100
COCCNS(=O)(=O)c1cc(OC)c(Cl)cc1Cl | i | 1 | -0.1 | -287 | 59 | -10 | 107
Cc1cc(C)cc(NC2=NC3(CCCCC3)N=C(N)N2)c1 | i | 0.78 | -1.1 | -21 | 121 | 3 | 103
COc1ccccc1N1CCN(/N=C\C(Br)=C\c2ccccc2)CC1 | i | 0.99 | / | / | / | -1 | 97
COc1ccc(NC(=O)CC#N)cc1OC | i | 1.1 | -3.2 | -5 | 73 | 1 | 89
CCN(CC(=O)Nc1cccc(C(C)=O)c1)S(=O)(=O)c1ccc(C)cc1 | i | 1.1 | / | / | / | 1 | 114
Cc1cc(C)nc(Nc2cc([N+](=O)[O-])ccc2C)n1 | i | 1.1 | / | / | / | 4 | 100
COC(=O)c1ccccc1S(=O)(=O)Nc1ccc(OC)nc1 | / | / | -3.0 | / | / | -5 | 53
Cc1ccc(S(=O)(=O)N2CCC(C(=O)N3CCN(Cc4ccccc4)CC3)CC2)cc1 | i | 0.97 | -1.6 | -29 | 116 | 0 | 101
CN1CCN(C(=O)C2=C[C@@H](c3csc4ccccc34)C[C@@H](OCCCCO)O2)CC1 | i | 0.97 | / | / | / | -2 | 100
O=C(Nc1cccnc1)c1c(F)c(F)c(F)c(F)c1F | i | 0.9 | -3.4 | 29 | 98 | -9 | 84
CC(=O)c1ccc(Oc2cc(C)nc(N3CCOCC3)n2)cc1 | i | 0.95 | -0.2 | / | / | -6 | 114
COc1cc(C2C(C#N)=C(N)Oc3cc(N(C)C)ccc32)cc2c1OCO2 (configuration not stated) | / | / | 3.1 | -127 | 9 | -9 | 99
CN(C)/C=C/C(=O)c1ccc(Cl)cc1 | i | 1.2 | -0.4 | 50 | 137 | -9 | 96
Cc1ccc(S(=O)(=O)c2cc3ccccc3oc2=Nc2ccc3c(c2)OCO3)cc1 | i | 1 | -1.0 | 40 | 111 | 2 | 96
COc1ccc(CN(Cc2ccccn2)S(=O)(=O)c2ccc(-n3cnnn3)cc2)cc1 | / | / | -0.2 | / | / | 1 | 104
COc1ccccc1CN1C[C@@H]2C[C@@H](c3ccc4nsnc4c3)N3CCC[C@@]23C1=O | i | 1.1 | / | / | / | -2 | 99
CC1CCN(C(=S)c2cn(Cc3ccccc3F)c3ccccc23)CC1 | ? | / | -1.2 | -17 | 64 | 3 | 101
CCc1ccc(CN2CCC(CO)(CC3CCCCO3)CC2)o1 (configuration not stated) | i | 0.94 | / | 44 | 112 | -6 | 102
CC1(C)C(=O)OC(C(=O)c2ccccc2)C2(CCCCC2)C1=O (configuration not stated) | i | 1 | -0.3 | 36 | 102 | -5 | 108
O=C(CCn1c2c(c3ccccc31)CCCC2)NNC(=O)c1ccc([N+](=O)[O-])cc1 | i | 1.1 | -0.6 | / | / | 6 | 100
COc1ccc(C(=O)NCc2nnc(SCC(=O)Nc3nnc(C)s3)o2)cc1OC | i | 0.97 | / | -32 | 88 | 6 | 100
O=[N+]([O-])c1ccc(NC(=S)N2CCN(c3ccc(F)cc3)CC2)cc1 | / | / | -1.8 | 14 | 114 | 1 | 101
CCCNC(=O)c1cc2cc([N+](=O)[O-])ccc2s1 | i | 1.2 | / | -30 | 134 | 6 | 105
O=C(CN1CCC(O)(c2ccccc2)CC1)Nc1ccc2c(c1)OCCO2 | i | 0.94 | / | / | / | 6 | 99

New compounds follow:
mol | HSV augment | HSV augment primary fold | GALR2 agonist | Insulin prom inh | Insulin prom inh cell count | PKD1 inh | RGS16-Gao
CCOc1ccc2[nH]cc(C(=O)O)c(=O)c2c1 | i | 0.53 | -2.3 | 9 | 103 | -3 | 98
COc1ccccc1CNC(=O)COC(=O)c1cc(C)oc1C | i | 0.98 | / | / | / | -9 | 100
COc1ccc2[nH]c3c(=O)n(CCN4CCOCC4)cnc3c2c1 | i | 1 | / | / | / | / | 98
CSCCC1NC(=O)N(CC(=O)N2N=C(c3ccc(Cl)cc3)CC2c2ccco2)C1=O (configuration not stated) | i | 0.97 | / | / | / | 5 | 99
COc1cc(C(=O)Nc2sc(C(=O)N3CCOCC3)c(C)c2C#N)cc(OC)c1OC | / | / | -2.2 | -7 | 81 | 1 | 98
CN(C)CCCN=Cc1c(-c2ccccc2)[nH]n(-c2nc3ccccc3s2)c1=O | i | 1 | / | -19 | 166 | 12 | 104
O=C(CN(C1CCCCC1)S(=O)(=O)c1ccc(Cl)cc1)NCc1cccnc1 | i | 1.1 | -3.9 | / | / | -3 | 100
CC(C)OC(=O)CSc1nc(N)c(C#N)c(-c2ccco2)c1C#N | i | 0.99 | -0.1 | 19 | 88 | 3 | 69
Cc1c(CCC(=O)O)c(=O)oc2c(C)c(OCc3cc4c(cc3Cl)OCO4)ccc12 | i | 1.1 | / | / | / | / | 97
CCOc1cc(-c2c(C)c(C)nc(N)c2C#N)ccc1O | i | 0.88 | -1.6 | 46 | 136 | 4 | 101

Six structures out of the list, arranged by SMILES length, high to low:
mol | HSV augment | HSV augment primary fold | GALR2 agonist | Insulin prom inh | Insulin prom inh cell count | PKD1 inh | RGS16-Gao
CSCCC1NC(=O)N(CC(=O)N2N=C(c3ccc(Cl)cc3)CC2c2ccco2)C1=O (configuration not stated) | i | 0.97 | / | / | / | 5 | 99
Cc1c(CCC(=O)O)c(=O)oc2c(C)c(OCc3cc4c(cc3Cl)OCO4)ccc12 | i | 1.1 | / | / | / | / | 97
CC(C)OC(=O)CSc1nc(N)c(C#N)c(-c2ccco2)c1C#N | i | 0.99 | -0.1 | 19 | 88 | 3 | 69
COc1ccc2[nH]c3c(=O)n(CCN4CCOCC4)cnc3c2c1 | i | 1 | / | / | / | / | 98
COc1ccccc1CNC(=O)COC(=O)c1cc(C)oc1C | i | 0.98 | / | / | / | -9 | 100
CCOc1ccc2[nH]cc(C(=O)O)c(=O)c2c1 | i | 0.53 | -2.3 | 9 | 103 | -3 | 98

Returning to the listing, repeating the two entries before the break.
mol | HSV augment | HSV augment primary fold | GALR2 agonist | Insulin prom inh | Insulin prom inh cell count | PKD1 inh | RGS16-Gao
Cc1c(CCC(=O)O)c(=O)oc2c(C)c(OCc3cc4c(cc3Cl)OCO4)ccc12 | i | 1.1 | / | / | / | / | 97
CCOc1cc(-c2c(C)c(C)nc(N)c2C#N)ccc1O | i | 0.88 | -1.6 | 46 | 136 | 4 | 101
O=C1SC(c2ccccc2)=N/C1=C/c1ccco1 | i | 1 | -0.7 | -50 | 90 | -11 | 109
O=C(c1ccc(F)cc1F)N(Cc1ccccn1)Cc1ccco1 | i | 0.98 | -0.9 | / | / | -8 | 101
Cc1cc(C)c2c(=O)n(CC(=O)NC3CCCC3)sc2n1 | i | 1 | / | / | / | / | 41
CC#CCCCC(=O)Nc1cc(OC)nc(OC)n1 | i | 0.86 | -0.1 | 31 | 129 | 7 | 112
O=C(Nc1cccc(F)c1)c1ccc(S(=O)(=O)N2CCCC2)cc1 | i | 1 | -2.9 | / | / | -3 | 104
COc1cc(/C=N/NC(=S)Nc2cccnc2)cc(OC)c1O | i | 0.97 | / | / | / | -5 | 103
O=C(NNS(=O)(=O)c1ccccc1)c1cccs1 | i | 1.1 | -0.3 | / | / | -12 | 92
Cn1c(-c2cccc(Br)c2)cnc1NCc1cccnc1 | i | 0.84 | -4.3 | 33 | 76 | -3 | 106
Cc1ccc(S(=O)(=O)NC(C)(C)CSc2nnc(N)s2)cc1 | i | 0.94 | -1.6 | -57 | 119 | 3 | 104
CC(=O)c1ccc(NC(=O)CO/N=C(\C)c2cccs2)cc1 | i | 1 | 0.3 | -9 | 152 | -7 | 99
Nc1nc(-c2ccccc2)c(-c2ccccc2)s1 | i | 0.94 | -2.7 | 0 | 129 | 2 | 96
O=C(Cc1ccc(Cl)cc1)Nc1cccc(S(=O)(=O)Nc2ccccc2F)c1 | i | 0.88 | -0.9 | 16 | 153 | -17 | 103
CCCCNC(=O)COC(=O)CCC(=O)c1ccc(F)cc1 | i | 1 | -2.7 | -31 | 114 | -7 | 104
CCOC(=O)c1c(C)[nH]c(C(=O)COC(=O)C23CC4CC(CC(Cl)(C4)C2)C3)c1C | i | 0.74 | -4.2 | 0 | 35 | 1 | 101
CCC(C)c1ccc(OCC(=O)Nc2ccc3[nH]c(=O)[nH]c3c2)cc1 (configuration not stated) | i | 1.1 | 0.9 | -2 | 43 | -2 | 13
NC(=O)NCc1cccnc1 | i | 0.99 | / | / | / | -2 | 98
CCOC(=O)CS(=O)(=O)c1nc(-c2ccc(F)cc2)cc(C(F)(F)F)n1 | i | 0.7 | 9.3* | / | / | -6 | 84
Cc1ccccc1OCCSc1nnc(-c2cccnc2)n1N | i | 1 | -0.3 | / | / | -4 | 104
CCOC(=O)c1c(N)sn(-c2ccccc2C)c1=S | i | 0.95 | 1.5 | / | / | 1 | 79
O=C(CN1C(=O)CSC1=O)Nc1ccc(N2CCOCC2)cc1 | / | / | -2.3 | 42 | 130 | -6 | 102
